Source: PubChem
2A firefly: Primary qHTS Assay for Foot and Mouth Disease Virus Antivirals against NCGC Sytravon and CBC Compound Libraries: Firefly Luciferase Signal; AID 1745856, 2022; actives 0.23% (n = 120,000); Potency, µM (titrated, usually from 57.5 µM), for inactives: at the top dose signal change, negative = less light; HEK cells with a luciferase reporter of 2A StopGo recoding; active = well fitted falling curve with a large enough effect; inconclusive = small, poorly fitted or top-dose-only effect; inactive = no such curve, though single readings can be large or run the other way; note: nearly all actives have a fitted effect of over 60% in size; overnight with compound
2A Renilla: Primary qHTS Assay for Foot and Mouth Disease Virus Antivirals against NCGC Sytravon and CBC Compound Libraries: Renilla Luciferase Signal. HEK cells with a luciferase reporter of 2A StopGo recoding. Potency, µM (series often up to 57.5 µM), for inactives: at the highest dose signal change, negative = less light. actives 0.32% (n = 120,000). AID 1745857, 2022; active means well fitted falling curve with a large enough effect; inconclusive means small, poorly fitted or top-dose-only effect; inactive means no such curve, though single readings can be large or run the other way; note: nearly all actives have a fitted effect of over 55% in size; overnight with compound
* hit, by the source's call; ? = inconclusive; [ ] = dose if it differs, or a comment. % is set by controls: 0 for no effect and ±100 for the full control effect; potency is the fitted concentration of half-maximal effect.

The opening two entries as a preview:
SMILES	2A firefly	2A Renilla
C=Cc1ccc(Cn2c(=O)n(-c3cccc(C)c3)c(=O)c3c2c2cc(C)ccc2n3C)cc1	-5%	-10%
CCN(CC)S(=O)(=O)c1ccc(/C=C\c2onc(C)c2NC(=O)C2CC2)cc1	?	20%

Main list (from the top)
SMILES	2A firefly	2A Renilla
C=Cc1ccc(Cn2c(=O)n(-c3cccc(C)c3)c(=O)c3c2c2cc(C)ccc2n3C)cc1	-5%	-10%
CCN(CC)S(=O)(=O)c1ccc(/C=C\c2onc(C)c2NC(=O)C2CC2)cc1	?	20%
O=C(O)CCNS(=O)(=O)c1cccc(C(=O)O)c1	0%	-12%
C=CCNC(=O)NC(=O)CN(C)Cc1ccc(C(F)(F)F)cc1	-12%	2%
O=C(NC(c1ccccc1)c1ccccn1)c1cc[n+]([O-])cc1 (stereo not given)	9%	7%
Cc1ccc(C(=O)c2ccccc2C(=O)NC2CCCC2)cc1	0%	-5%[1.06 µM]
CCn1cnc2c1c(=O)n(Cc1cccc(Br)c1)c(=O)n2Cc1ccccc1	2%	2%
CCN(CC)C(=O)c1sc2c(c1C)c(=O)n(CCc1ccccc1)c(=O)n2Cc1ccc(F)cc1Cl	-22%	-11%
CCCOc1ccc(C2C(=O)N(C3CCCCCC3)CC(=O)N2C(C)C)cc1OC (stereo not given)	-14%	-12%
COc1ccc(NC(=O)N2CCN(Cc3nc4ccc(C)cc4o3)CC2)cc1OC	15%	8%
CCCNc1nc2ccccc2nc1C(=O)Nc1ccc(C)cc1C	-1%	9%
CNC(C(=O)OC)c1ccc(Cl)c(Cl)c1 (stereo not given)	4%	-6%
COc1ccc2c(C)c(CCC(=O)NCCCN3CCOCC3)c(=O)oc2c1C	3%	-15%
Cc1ccc(CSc2nc3nc[nH]c3c(=O)[nH]2)cc1	58%[activator]	6%
CCC(Sc1nc(-c2ccccc2)[nH]c1S(=O)(=O)c1ccc(C)cc1)C(=O)O (stereo not given)	1%	-8%
Cc1ccc2c(C(=O)O)cc(-c3ccncc3)nc2c1C	4%	10%
Cc1ccc2c(=O)cc(C(=O)Nc3ccc(S(=O)(=O)N4CCCCCC4)cc3)oc2c1C	-18%	-7%
COc1cccc(C(=O)Nc2ccc3oc(C)nc3c2)c1	161%[activator]	23%
COc1ccc(-c2nc3ccccc3o2)cc1NC(=O)c1cccc2c(Cl)cccc12	18%	4%
COc1ccc(C(=O)c2sc3nc4c(c(C(F)(F)F)c3c2N)CN(C(C)=O)CC4)cc1OC	-8%	-10%

A draw from above in order of heavy-atom count, largest number first:
SMILES	2A firefly	2A Renilla
CCN(CC)C(=O)c1sc2c(c1C)c(=O)n(CCc1ccccc1)c(=O)n2Cc1ccc(F)cc1Cl	-22%	-11%
C=Cc1ccc(Cn2c(=O)n(-c3cccc(C)c3)c(=O)c3c2c2cc(C)ccc2n3C)cc1	-5%	-10%
Cc1ccc2c(=O)cc(C(=O)Nc3ccc(S(=O)(=O)N4CCCCCC4)cc3)oc2c1C	-18%	-7%
COc1ccc(-c2nc3ccccc3o2)cc1NC(=O)c1cccc2c(Cl)cccc12	18%	4%
COc1ccc(NC(=O)N2CCN(Cc3nc4ccc(C)cc4o3)CC2)cc1OC	15%	8%
COc1ccc2c(C)c(CCC(=O)NCCCN3CCOCC3)c(=O)oc2c1C	3%	-15%
CCN(CC)S(=O)(=O)c1ccc(/C=C\c2onc(C)c2NC(=O)C2CC2)cc1	?	20%
CCCNc1nc2ccccc2nc1C(=O)Nc1ccc(C)cc1C	-1%	9%
Cc1ccc(C(=O)c2ccccc2C(=O)NC2CCCC2)cc1	0%	-5%[1.06 µM]
COc1cccc(C(=O)Nc2ccc3oc(C)nc3c2)c1	161%[activator]	23%
Cc1ccc(CSc2nc3nc[nH]c3c(=O)[nH]2)cc1	58%[activator]	6%
O=C(O)CCNS(=O)(=O)c1cccc(C(=O)O)c1	0%	-12%
CNC(C(=O)OC)c1ccc(Cl)c(Cl)c1 (stereo not given)	4%	-6%

Additional structures follow:
SMILES	2A firefly	2A Renilla
COc1ccc(-c2nc3ccccc3o2)cc1NC(=O)CC12CC3CC(CC(C3)C1)C2	15%	-10%
COc1ccccc1Cc1nc2ccccc2nc1SCC(=O)NCc1ccc(F)cc1	-16%	-9%
CCCCN1CCCc2cc(CN(CCCN3CCOCC3)C(=O)Nc3ccc(CC)cc3)ccc21	-9%	-12%
CCOc1ccc(NC(=O)CCCOc2cc(=O)n(C)c3ccccc23)cc1	-13%	-13%
COc1cccc(NC(=O)Cn2nc(-c3ccncc3)ccc2=O)c1	-15%	-2%
Brc1ccc(-c2noc(-c3cccnc3)n2)o1	0%	9%
CCCc1c(C(=O)OCC)nnc2c(-c3ccc(Br)cc3)c(C)nn12	-11%	-16%
Cc1cc2cc(NC(=O)c3cccc(C#N)c3)ccc2[nH]1	34%[activator]	0%
Cc1ccc(C(=O)N2CCN(c3cccc(C)c3C)CC2)cc1NC(=O)C1=CSCCO1	-3%	-1%
COP(=O)(OC)c1nc(-c2ccc(Cl)cc2)oc1NCc1cccnc1	7%	21%
Cc1nc(-c2ccccc2)sc1-c1ccc(SCC(=O)Nc2ccc(F)cc2F)nn1	-18%	-11%
CCCCn1nc(C(=O)Nc2nccs2)c2ccccc2c1=O	25%	28%
CCCCC1CCC[S+](c2cc(O)ccc2O)C1 (stereo not given)	-3%	-3%
CCOc1ccc(NC(=O)CN(Cc2ccccc2)S(=O)(=O)c2ccc3nc(C)sc3c2)cc1	-26%	9%
O=C(CS(=O)(=O)c1cccc2nsnc12)Nc1ccc(F)cc1F	-26%	20%
Cc1cc(C)cc(NC(=O)C(=O)NCC(c2cccnc2)N2CCc3ccccc3C2)c1 (stereo not given)	-6%	0%
O=C(NC1CCCCC1)c1cc2c(Cl)nc3ccccc3c2s1	-16%	-7%
CN(Cc1cccs1)C(=O)CCl	?	28µM*
CN1C(=O)c2ccccc2Sc2ccc(NC(=O)c3ccccc3F)cc21	16%	164%[activator]
CC(=O)N(Cc1ccc2[nH]ccc2c1)C1CC1	24%	7%
Cc1cc(O)cc2oc(C(F)(F)F)c(-c3cnn(-c4ccccc4)c3)c(=O)c12	7%	0%
CC(C)C(C)NC(=O)c1ccc(I)cc1 (stereo not given)	-3%	-2%
O=c1c2nccnc2nc(SCc2cccc(Cl)c2)n1Cc1ccc2c(c1)OCO2	13%	12%
COc1cc(/C=C(/C#N)C(=O)c2c(Cl)cccc2Cl)cc(OC)c1O	?	?
O=C(Nc1c(NC2CCCCC2)c2ccccc2oc1=O)c1ccc2c(c1)OCO2	18%	2%
Cc1ccc(O)c(C(=O)OC(C)C(=O)Nc2ccc3c(c2)OCO3)c1 (stereo not given)	63%[activator]	-18%
Fc1ccc2[nH]cc(CCNC(=S)Nc3ccc(Nc4ccccc4)cc3)c2c1	?	?
CCc1nn2c(=O)cc(COC(=O)c3cccc(NC(=O)CCc4ccccc4)c3)nc2s1	13%	-13%
CN(CC(=O)Nc1ccc(F)cc1)C(=O)COc1ncnc2sccc12	-10%	-16%
O=C(NCc1ccccc1)C(Sc1nc2ccccc2o1)c1ccccc1 (stereo not given)	0%	0%
Cc1[nH]c2ccccc2c1C(c1ccccc1)c1ccc(Cl)s1 (stereo not given)	17%	9%
Cc1cc(Br)ccc1NC(=O)Cn1nc(-c2cccs2)oc1=O	-9%	-11%
CCCCNC(=O)c1cc2ccc(OC)cc2nc1C	68%[activator]	-3%
c1ccc(-n2nnnc2C2(NC3CCCCC3)CCCCC2)cc1	25%	159%[activator]
Cc1cc(=O)c2cc(C(=O)Nc3nnc(CC(C)C)s3)ccc2[nH]1	-1%	-6%
O=C(Nc1ccon1)c1sc2cccc(Cl)c2c1Cl	84%[activator]	-3%
Cc1oc(-c2cccs2)nc1CC(=O)Nc1ccccc1-c1ccccc1	-10%	56%[activator]
O=C(NCc1ccccn1)C1CCC(CNS(=O)(=O)c2ccccc2)CC1 (stereo not given)	-5%	-11%
CC(C)(C)c1ccc2cc(C(=O)NC3CC3)[nH]c2c1	289%[activator]	48%[activator]
O=C(Nc1cccc2ncccc12)c1cnc2ccccc2n1	53%[activator]	-15%
CCC(CC)C(=O)Nc1nnc(S(=O)(=O)N(C)c2cc(C)cc(C)c2)s1	-14%	24%
CC(C)c1ccc(N2C(=O)CSC23C(=O)N(Cc2ccccc2)c2ccccc23)cc1 (stereo not given)	-5%	-1%
CC(C)OC(=O)/C(C#N)=C\c1ccc(-c2ccccc2Cl)o1	16%	-1%
N#CC1=C2SCN(C3CCCCC3)CN2C(=O)CC1c1ccc(Cl)cc1 (stereo not given)	-24%	-13%
Cc1cc(C)c(NC(=O)C(C)n2c(=O)cc(-c3ccccc3)c3c(C)nn(C)c32)c(C)c1 (stereo not given)	-8%	-2%
N#Cc1c(Cl)nc2c(c1C#N)CCC/C2=C\c1ccco1	-10%	-15%
O=C(Cn1cc(S(=O)(=O)Cc2ccccc2Cl)c2ccccc21)Nc1cccc(C(F)(F)F)c1	-12%	40%[activator]
CCN(C(=O)COC(=O)Cc1sc(N)nc1-c1ccc(C)cc1)c1cccc2ccccc12	-3%	7%
COc1cc(OC)cc(C(=O)Nc2cc(-c3nc4ccccc4s3)ccc2OC)c1	-6%	-7%
O=C(Cn1nc(-c2ccccc2)c2ccccc2c1=O)N1CCOCC1	-14%	-8%
Cc1cc(NC(=O)Cn2c(=O)oc3cc(S(=O)(=O)N4CCCC4)ccc32)ccc1Br	0%	-5%
CCOc1ccc(C(=O)N(C)Cc2cc(Br)ccc2OC)cc1OCC	-2%	174%[activator]
C/C(CC(C)C)=N\NC(=O)c1ccc(Cl)cc1	116%[activator]	7%
COc1ccc(CNC(=O)Cc2ccc(NC(=O)N3CCCCc4ccccc43)cc2)cc1	-8%	-8%
CCc1ccc(S(=O)(=O)c2nnn3c2nc(N(C)Cc2ccccc2)c2cc(Cl)ccc23)cc1	11%	27%
Cc1cc(C(=O)NC2CCS(=O)(=O)C2)c2ccc(F)cc2n1 (stereo not given)	-6%	-16%
CC1CN(CCS(=O)c2ccccc2)CC(C)O1 (stereo not given)	14%	-4%
CCC(=O)N/N=C(/C)c1ccccc1	15%	8%
Cc1nn(-c2nc3c(c(=O)n(Cc4ccccc4Cl)c(=O)n3C)n2C(C)C)c(C)c1C	?	?
CCc1c(C)sc(NC(=O)OC)c1C#N	13%	9%

(cont.)
SMILES	2A firefly	2A Renilla
COc1ccc(-c2nnn3c2nc(NCc2ccc(C)cc2)c2ccccc23)cc1	-2%	-11%
COCCNc1nc2c(c(=O)n(C)c(=O)n2C)n1Cc1ccc(Cl)cc1Cl	21%	4%
Cc1cc(C)cc(OCC(=O)Nc2sc3c(c2C(=O)N2CCOCC2)CCCC3)c1	-13%	10%
CCOc1ccc(NC(=O)c2sc3nc(-c4ccc(OC)cc4)cn3c2C)cc1	16%	-7%
CCC1CN(C(=O)Nc2cc(C)ccc2OC)c2cc(Cl)ccc2O1 (stereo not given)	-4%	14%
COC(=O)c1ccc(NC(=O)C2(S(=O)(=O)c3ccc(C)cc3)CC2)cc1	18%	9%
Cc1ccccc1NC(=O)c1sc2nc(-c3ccncc3)ccc2c1N	38%[activator]	-5%
Cc1ccc(NC(=O)c2c(C)oc3ccc(O)c(CN4CCOCC4)c23)cc1	-19%	-13%
COc1cc(C2CC(=O)Nc3n[nH]c(Nc4ccccc4)c32)cc(OC)c1OC (stereo not given)	3%	-1%
CC(C)NC(=O)c1cccc(NC(=O)Nc2ccc(Cl)cc2)c1	20%	9%
CC(C)[C@H](NC(=O)c1c(F)cccc1F)C(=O)OCc1ccc(C(N)=O)cc1	-7%	-6%[1.06 µM]
Cc1cccc(C(=O)N2CCc3cc(CNS(=O)(=O)c4cccs4)ccc32)c1	?	-9%
COC(=O)c1ccc(COC(=O)c2oc3ccccc3c2C)o1	44%[activator]	-7%[1.06 µM]
CCCCNS(=O)(=O)c1cc(-c2n[nH]c(=O)c3ccccc23)ccc1C	4%	96%[activator]
CCc1nnc(CSc2nnc(Nc3ccc(C(C)C)cc3)s2)o1	120%[activator]	-11%
Cc1nc(CC(=O)NCc2ccccn2)cs1	5%	-4%
CCOc1ccc(-n2c(/C=C/c3ccccc3)nc3ccccc3c2=O)cc1	15%	-33%
CCOC(=O)c1c(C)[nH]c(C(=O)NCCc2ccc(Cl)cc2)c1C	0%	3%
Cc1ccccc1C(=O)NC1(C(F)(F)F)N=C(c2ccccc2)N(Cc2ccccc2)C1=O (stereo not given)	4%	14%
O=[N+]([O-])c1ccc(N2CCN(S(=O)(=O)c3ccccc3)CC2)c2ncccc12	-2%	-8%
CC(c1nc(N)nc(N(C)C)n1)N(C)CCOc1ccc(Cl)cc1 (stereo not given)	0%	0%
COCCCNC(=O)C1CCN(Cc2cc3ccccc3n2Cc2ccccc2C)CC1	-19%	-13%
Cc1ccc(/C=N/Nc2ccnc3cc(Cl)ccc23)s1	-19%	?
COC(=O)c1cc2sc(C)cc2n1Cc1ccc(Br)cc1F	0%	-7%
Oc1ccc(-c2ccc(O)cc2)cc1	100%[activator]	39%[activator]
COc1cccc(-n2c(=O)c3c(C)c(C)sc3n(CC(=O)NCc3ccc(C)cc3)c2=O)c1	-1%	-5%
COc1ccccc1NC(=O)c1cc(S(=O)(=O)NCCC2=CCCCC2)ccc1F	4%	239%[activator]
Cc1oc2cc(OC(=O)c3ccco3)ccc2c(=O)c1-c1ccc(Br)cc1	0%	14%
COc1ccc(N2CCN(CCCNC(=O)C3COc4ccc(OC)cc4C3)CC2)cc1 (stereo not given)	-4%	-9%
CCN(C(=O)c1noc2c1COc1ccc(C)cc1-2)c1cccc(C)c1	13%	5%
CC(C)Cn1cc(NC(=O)Nc2ccccc2)c2ccccc2c1=O	-4%	0%
N#CC(Cc1ccccc1F)(c1ccccc1)c1ccccc1	-3%	25%
O=C(Nc1nc2ccc(F)cc2s1)c1ccc(CN2CCCCC2)cc1	40%[activator]	?
CNC(=O)Oc1cccc2ccccc12	10%	3%
